Compound activity from PubChem BioAssay.
TRPV1 PAM: HTS Assay for Compounds that Act as Potentiators of the Vanilloid Receptor 1; Transient receptor potential cation channel subfamily V member 1 (Homo sapiens), Q8NER1; 0.02% of 320,000 active; TRPV1-expressing cells, Fluo-8 calcium influx, capsaicin EC20 potentiation; host cell line not named in the record; control for the full effect not named in the record; AID 540277, 2011; potentiation, % at 8.33 µM; active means potentiation above 80%; inconclusive means 30% to 80%; inactive means below 30%; also: 0% is about no effect
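Fluo-8 calcium influx in TRPV1-expressing cells, kinetic read (ex 480/em 520 nm). Compound added and read 3 min for agonist activity, followed by capsaicin at EC20 final and 2 min further read for enhancement.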
TRPML1 blocker: qHTS for Inhibitors of the Human Mucolipin Transient Receptor Potential 1 (TRPML1); Mucolipin-1 (Homo sapiens), Q9GZU1; TRPML1-inducible cells, Ca2+ dye fluorescence, FDSS; active compounds read low; inhibition of EC80 agonist-evoked calcium signal; activity change, negative = inhibition, % (no concentration beside the values); 0.02% of 390,000 active; AID 624415, 2012; in the data active means activity change below about -50%; inconclusive means about -30% to -50%; inactive means above about -30%;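 also: stimulus is agonist 54-4 at its EC80 concentration; % is scaled to controls: 0 for no effect and ±100 for the full control effect; compound concentration not given in the record; the text of the record puts the active cut at -80%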
Target sequence (Q9GZU1 whole entry, looked up): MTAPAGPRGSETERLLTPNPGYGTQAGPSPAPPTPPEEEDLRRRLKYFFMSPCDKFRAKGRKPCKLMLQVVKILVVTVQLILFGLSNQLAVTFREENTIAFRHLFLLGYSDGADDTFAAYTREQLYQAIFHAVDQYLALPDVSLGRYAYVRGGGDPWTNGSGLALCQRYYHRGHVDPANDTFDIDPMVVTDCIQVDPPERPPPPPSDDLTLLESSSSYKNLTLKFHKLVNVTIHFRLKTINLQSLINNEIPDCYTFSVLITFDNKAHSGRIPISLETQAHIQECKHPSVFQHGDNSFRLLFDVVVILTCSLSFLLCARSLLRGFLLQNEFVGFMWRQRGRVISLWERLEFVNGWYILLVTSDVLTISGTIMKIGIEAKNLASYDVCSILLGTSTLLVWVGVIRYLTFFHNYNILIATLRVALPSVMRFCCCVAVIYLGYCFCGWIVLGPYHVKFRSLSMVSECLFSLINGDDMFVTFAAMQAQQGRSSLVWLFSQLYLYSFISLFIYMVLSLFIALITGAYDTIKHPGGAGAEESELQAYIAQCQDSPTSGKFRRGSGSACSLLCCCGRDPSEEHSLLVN
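TRPML1-DL cells, Tet-induced overnight (~16 h, 37 °C) at 1,500 cells/well, were loaded with Ca8 no-wash dye plus quencher for 45-90 min at room temperature. Compounds were pinned during FDSS kinetic reading; agonist 54-4 at EC80 (4 uM final) then added.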
ClpP mod: qHTS Assay for Activators of ClpP; 1.9% of 340,000 active; Potency, µM (top dose mostly 57.5 µM), without a hit: at the top dose activity change, negative = active; purified B. subtilis ClpP, FRET peptide cleavage, 20 min; active = well fitted falling curve with a large enough effect; inconclusive = small, poorly fitted or top-dose-only effect; inactive = no such curve, though single readings can be large or run the other way; also: potency is read from the fitted curve at half-maximal effect; the source files actives as falling curves though it sought activators and does not explain the sign; nearly all actives have a fitted effect of over 65% in size; many hits overshoot -100%
Target sequence (P80244 whole entry, looked up): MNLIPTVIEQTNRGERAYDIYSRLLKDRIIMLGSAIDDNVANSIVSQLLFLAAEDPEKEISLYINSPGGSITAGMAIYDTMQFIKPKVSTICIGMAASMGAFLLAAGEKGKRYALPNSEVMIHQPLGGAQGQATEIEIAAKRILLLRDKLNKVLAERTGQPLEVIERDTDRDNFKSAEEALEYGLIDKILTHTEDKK
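Purified B. subtilis ClpP, 10 microg/mL final in Tris/HCl pH8 with KCl, BSA, glycerol and Tween-20, cleaved an Abz/nitrotyrosine-quenched decapeptide. Fluorescence (ex 320, em 430) was read at 0 and 20 min at room temperature. Delta was normalized to 5.8 microM ADEP and DMSO/no-enzyme controls.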
TRPML1 ag: qHTS for Agonists of the Human Mucolipin Transient Receptor Potential 1 (TRPML1); TRPML1-expressing cells, Ca2+ dye fluorescence, FDSS; host cell line not named in the record; reference of the full effect not given here; activation, % (concentration not given with the values); 0.12% of 410,000 active; in the data active = activation above about 50%; inconclusive = about 30% to 50%; inactive = below about 30%; also: 0% is about no effect; the text of the record puts the active cut at 80%
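In this qHTS format, compounds were pin-transferred onto Ca8-dye-loaded TRPML1-DL cells induced with Tet overnight, and intracellular Ca2+ fluorescence was recorded kinetically for 110 s after a 10 s baseline. A subsequent 4uM final 54-4 (EC80) addition followed by a second 110 s read served as the antagonist phase.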
Menin-MLL FL inh: qHTS Assay for Inhibitors Targeting the Menin-MLL Interaction in MLL Related Leukemias: Competition With Fluorescein Labeled MLL-derived Peptide. FP activity change, % at 61.4 µM. 290,000 tested, under 10 active. AID 1766, 2009. Fluorescence polarization, fluorescein-MLL peptide displacement from menin; inconclusive = falling polarisation curve, or a change in total fluorescence; inactive = total fluorescence flat and polarisation flat or rising; no compound was filed as active; the % refers to the polarisation; negative = inhibition;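 also: % of control where 0% means no effect; inhibitors lower the polarisation; unlabelled MLL peptide was the positive control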
Sfp inh: qHTS Assay for Inhibitors of Bacillus subtilis Sfp phosphopantetheinyl transferase (PPTase); 4'-phosphopantetheinyl transferase ffp (Bacillus subtilis), Q9F4F7; Biochemical Sfp PPTase activity, qHTS; Potency, µM, inactives show max response, negative = inhibition, actives largely listed as inhibitors; 3.5% of 310,000 active; AID 1490, 2009; active = well fitted inhibition curve with a large enough effect; inconclusive = small, poorly fitted or top-dose-only effect, or another doubt; inactive = no such curve, though single readings can be large or run the other way;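 also: the enzyme is Sfp with the accession as filed and its product quenches rhodamine fluorescence; potency is read from the fitted curve at half-maximal effect; 0% = enzyme reaction without inhibitor and -100% = no enzyme wells; top concentration of the series not given in the record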
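With Hepes-Na pH 7.6 buffer containing 10 mM MgCl2, Sfp (15 nM) modified BHQ-2-YbbR (12.5 uM) using rhodamine-CoA (5 uM). Two reads 30 minutes apart at 525/598 nm yielded each well's rate.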
PINK1 expr mod: A Quantitative High throughput Screen to Identify Chemical Modulators of PINK1 Expression | PINK1 immunofluorescence, high-content cytometry, 24 h | Potency, µM (top dose mostly 76.6 µM), inactives show top-dose activation (PINK1 increase), hits mostly activators | 0.2% of 410,000 active | AID 624263, 2012; active = well fitted activation curve with a large enough effect; inconclusive = small, poorly fitted or top-dose-only effect; inactive = flat fitted curve, though single readings scatter; cell line not stated here;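 also: potency is read from the fitted curve at half-maximal effect; % of control where 0% means no effect; nearly all actives have a fitted effect of over 65% in size; a mitochondrial uncoupler was the plate control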
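Cells are seeded, rested 12 hours, then given compound at five concentrations or DMSO for 24 hours. After fixation, blocking and antibody staining, PINK1 amount and mitochondrial localization are scored; CCCP serves as control.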
* marks the source's active call; other numbers are inactive results; ? = inconclusive; / = not tested or not shown; & = joins results of further samples; [ ] = dose if it differs, or a comment.

SMILES | TRPV1 PAM | TRPML1 blocker | ClpP mod | TRPML1 ag | Menin-MLL FL inh | Sfp inh | PINK1 expr mod
CC(C)Cc1nnc(NC(=O)CSc2ncn[nH]2)s1 | -1 | -5 | 1.7% | 0.1 | 1.8 | 10% | 0.2%
CCOc1ccccc1CN1CCC(Oc2ccc(C(=O)NCc3ccccn3)cc2)CC1 | 22 | -8 | -1.7% | -0.4 | 3.6 | 23% | 1.0%
CC(=O)N1CCc2cc(S(=O)(=O)NC(CC(C)C)C(=O)Nc3cc(C)ccn3)ccc21 (configuration not stated) | -3 | 4 | -1.4% | -0.5 | -0.1 | 14% | -0.2%
CCOc1ccc(NC(=O)NN2C(C)CCCC2C)cc1 (configuration not stated) | 23 | 41 | 0.8% | 0.9 | -3.2 | 8% | 5.2%
CNC(=O)c1cc(S(=O)(=O)Nc2ccc(C)cc2C)ccc1C | ? | -30 | -1.3% | 0.2 | / | 15% | -0.6%
COc1ccc2[nH]c3c(c2c1)CCN1C(=O)C(CC(=O)NCCC2=CCCCC2)C[C@H](C(=O)N(C(C)C)C(C)C)[C@@]31C (some centres not stated) | / | -2 | 0.1% | 0.4 | / | / | 13%
CCN(CC)Cc1ccccn1 | / | 11 | -0.7% | -0.5 | 1.1 | ? | -2.4%
CCCCNC(=O)C1CCN(Cc2ccccn2)CC1 | -4 | 9 | -3.4% | -0.5 | 1.7 | 56µM* | 1.9%
CCOC(=O)C1(Nc2nccs2)Sc2ccccc2NC1=O (configuration not stated) | 21 | 13 | -0.7% | -0.2 | 0.8 | -20% | 4.7%
Cc1ccc(CC2CC(=O)N(C(Cc3ccccc3)C(=O)O)C2=O)cc1 (configuration not stated) | -2 | 24 | / | -0.4 | -2.4 | 10% | 1.0%
COc1ccc(/C=N\NC(=O)c2cc3c(ccc4ccccc43)o2)cc1O | -4 | -1 | -11% | 0.5 | / | 7% | 5.2%
C(=C\c1ccccc1)/CN1CCN(C(CCc2ccccc2)c2nnnn2C2CCCCC2)CC1 (configuration not stated) | / | / | -4.2% | 0.0 | / | / | 1.9%
Cc1c(O)ccc(C(=O)CN2CCN(c3ccccc3F)CC2)c1O | 4 | -1 | -2.0% | -0.5 | -0.4 | 14% | 0.3%
COc1ccc(Cl)cc1NC(=O)c1cc2nc(-c3ccc(C)cc3)cc(C(F)(F)F)n2n1 | / | -8 | 0.9% | -0.6 | / | / | -0.4%
C/C(=C\C(=O)c1cccnc1)Nc1ccc(O)cc1 | 11 | -5 | 0.6% | 1.7 | 6.5 | ? | 0.3%
O=C(Nc1cc(Cl)cc(Cl)c1)c1cccnc1 | 24 | -7 | / | 0.1 | -3.5 | 14% | 0.5%
Cc1ccc(-c2nnc3ccc(SC(C)C(=O)O)nn23)cc1 (configuration not stated) | -10 | 5 | -22%&-19% | -0.7&-0.3 | -1.0 | ? | 3.6%&-0.3%
CCOC(=O)CCN(c1ccccc1)S(=O)(=O)c1ccc2[nH]c(=O)ccc2c1 | / | 6 | -5.9% | 1.1 | / | / | -5.2%
O=[N+]([O-])c1ccccc1S(=O)(=O)N1CCN(Cc2ccsc2)CC1 | 0 | 27 | / | 0.7 | 0.6 | -28% | -1.2%
O=C(c1cc2ccccc2c(=O)o1)N1CCCc2ccccc21 | -3 | -22 | 0.8% | -0.9 | -0.2 | 7% | 2.6%
CCc1ccc(C(=O)NN=C2CCCCCC2)s1 | -14 | 22 | -2.5% | -0.5 | 1.5 | 11% | -0.1%
O=C(/C=C/c1c(Cl)cccc1Cl)N1CCOCC1 | -1 | 11 | -4.1% | -0.6 | 1.8 | 3% | 0.2%
COc1cccc(NC(=O)NCCc2ccc(Cl)cc2)c1 | -8 | 0 | / | -0.3 | -0.4 | -12% | 3.0%
Cc1noc(C)c1C(=O)Nc1nc2ccccc2s1 | 11 | -5 | / | -0.3 | / | / | 5.5%
CCOC(=O)c1ccc(CS(=O)c2ccc(Cl)cc2)o1 (configuration not stated) | -22 | 5 | -0.6% | -0.5 | -6.9 | 15% | 2.5%[38.3 µM]
Remaining list, next part:
SMILES | TRPV1 PAM | TRPML1 blocker | ClpP mod | TRPML1 ag | Menin-MLL FL inh | Sfp inh | PINK1 expr mod
O=C(CCS(=O)(=O)c1ccc(Br)s1)N1CCc2ccccc21 | 3 | 29 | -1.8% | 1.4 | -0.7 | -2% | 1.9%[38.3 µM]
O=C(NC(=S)NCc1nc2ccccc2[nH]1)c1ccccc1F | -4 | -23 | -0.4% | -1.6 | 1.3 | 4% | 1.3%
Cc1ccc(N(C(C)C(=O)Nc2ccc3c(c2)OCO3)S(C)(=O)=O)cc1 (configuration not stated) | 4 | 0 | -12% | -0.5 | -0.5 | -6% | 3.6%
O=C(CCSc1ccc(F)cc1)NNC(=O)c1ccc([N+](=O)[O-])cc1 | -6 | -7 | -1.7% | 0.5 | / | / | 2.0%
COc1ccccc1NC(=O)C1=C(C)Nc2c(C(=O)Nc3ccc(F)cc3)cnn2C1c1ccc(Cl)cc1 (configuration not stated) | / | 7 | 28µM* | 3.6 | / | / | 24%
CCN(CC)C(=O)C1CCCN(Cc2nc(-c3cnccn3)no2)C1 (configuration not stated) | -3 | -16 | / | -0.6 | 0.3 | -4% | -0.7%
O=C(NC1CCCCC1)OC1CC2CC1[C@H]1CCCCN1C2=O (some centres not stated) | / | / | 0.0% | -1.1 | / | / | -0.9%
COCCCNC1=C(C#N)C(=O)NC2(CCCC2)S1 | / | 11 | -1.4% | -0.3 | / | / | 0.7%
CCc1cc2cccc(C)c2nc1SCC(=O)NNC(=O)c1ccco1 | 11 | 11 | -19% | 0.3 | 4.6 | -7% | /
CCCOc1ccc(C(=O)N2CCN(Cc3ccc4c(c3)OCO4)CC2)cc1 | ? | -2 | -0.1% | 0.4 | / | 14% | -0.8%
O=C(Nc1ccccc1N1CCOCC1)c1cccc(NS(=O)(=O)c2ccc(F)c(F)c2)c1 | 6 | -4 | / | 1.8 | -1.9 | 4% | 0.0%
Cc1ccc(Nc2nc(N)nc(CN3CCN(Cc4ccc5c(c4)OCO5)CC3)n2)cc1C | 16 | 27 | / | 1.6 | -0.4 | 6% | -1.5%
COc1ccc(OC)c(CN2CCN(Cc3ccc(OC)c(OC)c3OC)CC2)c1 | / | -8 | -6.6% | -0.4 | / | / | 0.3%
Cc1ccc(NC(=O)CSc2nnc(Cn3c(=O)sc4ccccc43)n2C)cc1 | -11 | -15 | -2.9% | 0.5 | 0.2 | 15% | 0.4%
Cc1cccc(CNC(=O)c2ccc(NC(=O)N3CC(C)Sc4ccccc43)cc2)c1 (configuration not stated) | / | -9 | -0.3% | 1.4 | / | / | -2.0%
Cc1ccc(S(=O)(=O)Nc2cc3c(cc2NCc2ccccc2)n(C)c(=O)n3C)cc1 | / | -8 | 3.9% | -1.3 | / | / | 4.9%
Cc1ccc(C)c(NC(=O)C2CC(O)CN2C(=O)OC(C)(C)C)c1 (configuration not stated) | 5 | -2 | -0.8% | 0.6 | 2.7 | 18% | 0.3%
CSCc1ccc(C(=O)NCc2ccccc2)cc1 | -16 | 13 | -1.1% | 0.2 | 3.5 | 11% | 1.6%
COc1ccc(/C=C(\NC(=O)c2ccccc2)C(=O)N2CCC(C)CC2)cc1 | 3 | 7 | / | 0.7 | / | / | 0.8%
O=[N+]([O-])c1cccc(NC(=S)N2CCCC2)c1 | -3 | -12 | -0.1% | -0.6 | / | -2% | 0.1%
Cc1c(-c2ccccc2)sc2nc[nH]c(=S)c12 | -3 | 9 | -1.6% | 0.4 | -11 | 18% | -1.4%
O=[N+]([O-])c1ccc(Cl)cc1N1CCOCC1 | 10 | 2 | / | -0.1 | -1.4 | -2% | 1.9%
COc1ccc(OC)c(NC(=O)CSc2ccc3nnc(-c4ccccn4)n3n2)c1 | 3 | -9 | 0.3% | -0.5 | 0.8 | -3% | 0.2%
COc1ccc(CCN2CC(C(=O)Nc3nnc(Cc4ccccc4)s3)CC2=O)cc1OC (configuration not stated) | 5 | -10 | 0.3% | -0.1 | / | / | 0.4%
COc1ccc(N2CCN(c3cc(C)c4cccc(C)c4n3)CC2)cc1 | 2 | 22 | -2.3% | 1.1 | 1.0 | 1% | 0.8%
(continued)
SMILES | TRPV1 PAM | TRPML1 blocker | ClpP mod | TRPML1 ag | Menin-MLL FL inh | Sfp inh | PINK1 expr mod
O=C(N/N=C\c1ccc(CNS(=O)(=O)c2ccccc2)o1)C(=O)Nc1ccc(F)cc1 | 15 | 11 | -4.2% | 1.2 | 2.0 | 3% | 3.5%
Cc1cccn2c(=O)c3cc(S(=O)(=O)c4ccc(F)cc4)c(=N)n(Cc4ccco4)c3nc12 | 3 | 35 | / | 2.0 | 1.4 | -12% | 1.7%
COc1ccc(CNC(=O)C2CCN(c3nnc(C)c4c(C)n(-c5ccc(C)cc5)nc34)CC2)cc1 | / | 12 | 3.8% | 0.0 | / | / | 0.0%
OC1CCCN(c2c3c(nc4cc(-c5cccc(Cl)c5)nn24)CCC3)C1 (configuration not stated) | -2 | 1 | 15% | 1.3 | 13 | -3% | /
C=CCN(c1ccccc1)S(=O)(=O)c1cc2c(cc1C)N(C)CCO2 | 19 | 7 | 0.1% | 1.4 | 3.3 | -3% | 2.2%
COc1ccc(-n2nnc3c(=O)n(CC(=O)Nc4cc(C)on4)cnc32)cc1 | -5 | 7 | / | 0.5 | 2.9 | -13% | 3.8%
O=C1C2C3C=CC(C3)C2C(=O)N1c1ccc2ccccc2c1 (configuration not stated) | 0 | -11 | -0.6% | 0.1 | -4.2 | 4% | 0.5%
CC(C)CN(C(=O)COC(=O)c1ccc(C#N)cc1)C1CCS(=O)(=O)C1 (configuration not stated) | 6 | 7 | 1.2% | -0.3 | / | / | -0.6%
